VACV Venus inh: qHTS for Stage-Specific Inhibitors of Vaccinia Orthopoxvirus: Venus Reporter Primary qHTS | Vaccinia virus Venus reporter expression, fluorescence | 330,000 compounds, 0.46% hits | Potency, µM (top dose mostly 36.5 µM), inactives show at the highest dose activity change, negative = inhibition, actives largely listed as inhibitors; active means well fitted inhibition curve with a large enough effect; inconclusive means small, poorly fitted or top-dose-only effect; inactive means no such curve, though single readings can be large or run the other way; tested in A549 cells; note: nearly all actives have a fitted effect of over 30% in size; inactives centre near -10
VACV mCherry inh: qHTS for Stage-Specific Inhibitors of Vaccinia Orthopoxvirus: mCherry Reporter Primary qHTS; Vaccinia virus mCherry reporter infection, fluorescence; about a quarter of the inactives have no number; Potency, µM (top dose mostly 36.5 µM), inactives show at the top dose activity change, negative = inhibition, usual class: inhibitors; 310,000 compounds, 0.63% hits; AID 720579, 2013; active = well fitted inhibition curve with a large enough effect; inconclusive = small, poorly fitted or top-dose-only effect; inactive = no such curve, though single readings can be large or run the other way; tested in A549 cells; note: nearly all actives have a fitted effect of over 35% in size; inactives centre near -10
An asterisk follows results filed as active; i = inactive; u = inconclusive; x = no result given; & = joins results of further samples; [ ] = dose if it differs, or a comment. % is set by controls: 0 for no effect and ±100 for the full control effect; potency is the fitted concentration of half-maximal effect.

SMILES	VACV Venus inh	VACV mCherry inh
CSc1ccc(C(O)c2ncc(-c3ccc(F)cc3)[nH]2)cc1 (stereo not given)	1.2%	17.8%
COc1cc(OC)cc(-n2c(=O)c3sccc3n(Cc3cc(=O)n4c(C)cccc4n3)c2=O)c1	-2.8%	-13.2%
CCCCC[C@H](C)N1C[C@H](COCc2ccccc2)Oc2cc(N3CCC[C@@H]3COC)ccc2S1(=O)=O	-14.2%	-13.0%
COc1ccccc1NC(=O)C1=C(C)Nc2ncnn2C1c1ccc[nH]1 (stereo not given)	-4.7%	-1.2%
Cc1ccccc1-c1nc(NC(=O)CSc2ncnc3sc4c(c23)CCCC4)ns1	-4.2%	-9.7%
CC(=O)c1c(C)oc2ccc(N(C(=O)Oc3ccccc3)S(=O)(=O)c3ccccc3)cc12	-17.0%	-2.4%
CC(C)c1nnc(NC(=O)CSc2nc3ccccc3[nH]2)s1	2.0%	i
CCN(CC)S(=O)(=O)c1ccc2c(c1)nc(CN(C)C(=O)Nc1cccc(Cl)c1)n2C	-6.2%	-19.8%
Cc1cc(C)c2cc(CN(CCO)C(=O)Nc3ccc(Cl)cc3)c(=O)[nH]c2c1	u	x
Cc1ccc(Cn2ncc3c(N4CCN(C)CC4)ncnc32)cc1	-3.1%	-6.9%
COC1CCCCC1Nc1cc(C)cc(C)c1 (stereo not given)	3.1%	-10.5%
COc1ccc(C)cc1NC(=O)Nc1cccc(-c2noc(C)n2)c1	-4.2%	-12.0%
O=C(CSC1=NS(=O)(=O)c2ccccc2N1)Nc1ccccc1F	-4.7%	i
Cc1ccc(C)c(Cn2c3ccccc3c3cnn(CC(=O)NCCN4CCOCC4)c(=O)c32)c1	-16.4%	-4.9%
CCOC(=O)CSc1nnc(CNC(=O)c2cc(OC)c(OC)c(OC)c2)n1C	-6.0%	-6.8%
Cc1onc(-c2ccccc2Cl)c1C(=O)N1CCN(S(=O)(=O)c2ccc(F)c(F)c2)CC1	-25.6%	-18.4%
Cc1cc(C)n(CCNC(=O)CC2C(=O)NCCN2CC2CCCCC2)n1 (stereo not given)	-2.1%	-5.6%
O=C(CN1CCOCC1)Nc1c2c(nc3c1CCC3)CCC2	-21.6%	x
COc1cccc(CNC(=O)c2nn(-c3ccccc3Cl)nc2CO)c1	-3.6%	-3.0%
O=C(NCc1ccccc1)c1ncn[nH]1	-16.0%	i
CC1CC(=O)Nc2ccccc2N1S(=O)(=O)c1cccc(F)c1 (stereo not given)	0.0%	i
Cc1ccc(C(=O)N/C(=C/c2cccs2)C(=O)N2CCCCCC2)cc1	-0.1%	-0.7%
O=C(NCC(c1cccnc1)N1CCN(c2ccc(F)cc2)CC1)c1ccc(F)cc1 (stereo not given)	-17.0%	x
COC(=O)c1cc(-c2c(C)oc3cc(O)ccc3c2=O)c(C)o1	-1.5%	-13.2%
C=CCOc1c(CNc2ccc(S(N)(=O)=O)cc2)cccc1OC	-22.0%	u
COc1ccc(CNC(=O)CN(C(=O)c2csnn2)c2cccc(F)c2)cc1	-5.8%	-20.5%
CCN1C(=O)C(=Cc2cc(C)n(C3CC3)c2C)C(=O)N(CC)C1=S	8.4%	-0.2%
O=C(CSc1nc2ccccc2n1-c1ccccc1)Nc1ncc(Cl)cc1Cl	20.2%	6.31µM*
COC(=O)c1c(NC(=O)c2ccc(OC)cc2OC)sc2c1CCCCC2	4.6%	-2.9%
CCn1c(SCC(=O)Nc2cc(NC(C)=O)ccc2OC)nnc1-c1ccccn1	0.8%	-11.7%
COC(=O)c1ccccc1NC(=O)c1ccc2c(Cl)c3c(nc2c1)CCCC3	-1.2%	-2.0%
COc1ccc(OCCCC(=O)Nc2cc(Cl)ccc2-n2cncn2)cc1	12.0%	-0.8%
c1ccc(-n2ncc3c(NC4CCCC4)ncnc32)cc1	-18.8%	i
CCC(=O)c1ccc(OCC(=O)OCC(=O)N2c3ccccc3NC(=O)C2(C)C)cc1	-8.9%	i
NS(=O)(=O)c1ccc(CNC(=O)/C=C/c2cccc(Cl)c2)cc1	-8.3%	i
Cc1ccc(NC(=S)N2CCN(S(=O)(=O)c3ccc(F)cc3)CC2)cc1	-15.3%	-17.0%
CCCC(=O)N1CCC1(C)C(=O)NS(=O)(=O)c1cccc(C)c1 (stereo not given)	7.7%	9.5%
CC(=O)Oc1ccc(C2(C)CC(C)(C)Oc3cc(OC(C)=O)ccc32)c(OC(C)=O)c1 (stereo not given)	-11.0%	u
Cc1ccc(C)c(S(=O)(=O)N2CCN(C(=O)c3sccc3C)CC2)c1	-10.3%	-10.9%
COc1ccc(CN(C)C(C)C(=O)NC2CCCc3ccccc32)cc1 (stereo not given)	-11.9%	-15.2%
Cc1nc2ccccc2n1CC(=O)OCC(=O)NCc1ccccc1	-11.6%	-12.6%
CCCS(=O)(=O)c1c(S(=O)(=O)CCC)c2c(C)cccn2c1C(=O)OC	-16.1%	-1.0%
Cc1c(NC(=O)c2ccc(S(=O)(=O)N3CCOCC3)cc2)cccc1[N+](=O)[O-]	-7.6%	-3.2%
N#C/C(=C1/CCCCCN1)c1nnc2n1CCCCC2	-12.2%	-14.8%
Cc1ccc(N(CCC(=O)O)S(=O)(=O)c2ccc(C)cc2)cc1	-6.2%	-2.2%
CCOc1ccccc1N1CC(C(=O)NC2CCCCCC2)CC1=O (stereo not given)	-4.9%	i
CCC(=NCc1ccc(Cl)c(Cl)c1)c1nc(-c2ccco2)oc1O	-25.3%	u
O=C1COc2ccc(C(=O)/C=C/c3ccccc3)cc2N1	-16.4%	i
C#CCOCCOCCOCCNc1nc(N2CCOCC2)nc(N2CCN(C(=O)[C@H](CCC(=O)O)n3cc(C(N)[C@H](C)CC)nn3)CC2)n1 (stereo not given in full)	-0.9%	i
COc1cc(SC)ccc1C(=O)Nc1ccc(Cl)cn1	-0.1%	-12.0%
CC(C)CC1NC(=O)c2cc3ccccc3cc2-n2c1nc1ccc(F)cc1c2=O (stereo not given)	-27.8%	-5.9%
COC(=O)CCCC1=CC2=C(c3ccccc3)C(=O)C(C)(OC(=O)C3CCCC3)C(=O)C2=CN1CCc1c[nH]c2ccccc12 (stereo not given)	0.4%	-4.1%
O=C(CC1CCCCC1)NCCS(=O)(=O)N1CCN(c2ccccc2)CC1	-14.2%	i
CCOC(=O)N1CCN(CCC(=O)Nc2ccc(F)c(F)c2)CC1	-19.5%	-0.5%
CC(=O)N1CC(=O)N(CC(=O)Nc2ccc(Br)cc2)C1=S	12.2%	-11.7%
COc1cc(Cl)c(C)cc1NC(=O)CSC	-14.6%	x
CCOc1ccc(CCN2C(=S)N([C@@H](Cc3ccc(O)cc3)CN3CCC[C@@H]3CN3C(=S)NC[C@@H]3Cc3ccccc3)C[C@@H]2Cc2ccccc2)cc1	-12.5%	-2.0%
CC(OC(=O)c1cc(=O)[nH]c2ccccc12)C(=O)c1ccccc1 (stereo not given)	-18.1%	i
COc1ccc(-c2oc3ccccc3c2C(=O)Oc2ccccc2)cc1	0.2%	i
COc1ccc(NC(=O)C2CCOC(C)(C)C2)cc1 (stereo not given)	3.4%	-3.7%
Other entries.
SMILES	VACV Venus inh	VACV mCherry inh
CN(C(=O)c1cccc(NC(=O)Cc2ccc(NC(=O)C3CCCN(S(=O)(=O)c4cccc([N+](=O)[O-])c4)C3)cc2)c1)C1CCC1 (stereo not given)	-24.4%	-9.1%
CN(C)S(=O)(=O)c1ccc(C(=O)Nc2cc(=O)n(C)c(=O)n2C)cc1	-4.4%	i
CCOc1ccc(S(=O)(=O)Nc2ccccc2C(=O)N2CCCC2)cc1	-1.5%	-8.3%
CCOC(=O)c1cc(-c2ccccc2)n(-c2cccc(C(=O)Nc3cc(OC)cc(OC)c3)c2)c1C	-4.6%	-9.8%
N#Cc1ccc(OCC(=O)OCC(=O)NC2CC2)cc1	-8.7%	-12.2%
C[C@H](CO)N1C[C@H](C)[C@@H](CN(C)C(=O)Nc2ccc3c(c2)OCO3)Oc2c(NC(=O)Nc3ccc(C(F)(F)F)cc3)cccc2C1=O	u	-26.4%
Cc1ccc(C)c(Nc2c([N+](=O)[O-])cc(C(=O)N3CC(=O)Nc4ccccc43)cc2[N+](=O)[O-])c1	-24.1%	-5.8%
CC(=O)Nc1ccc2c(c1)C(=O)N(c1cccc(C)c1)C2=O	-3.3%	-17.4%
CN(C)c1ccc(-c2cc(NCc3cccnc3)ncn2)cc1	0.0%	-5.0%
COc1ccc(-c2nnc(SCC(=O)NCc3ccccc3)nc2-c2ccc(OC)c(OC)c2)cc1OC	-29.7%	u
CN(C)S(=O)(=O)c1ccc(N2CCCC2)c(C(=O)OCC(=O)NC2CCCCC2)c1	-18.4%	-24.7%
Cc1ccc(OCC(=O)Nc2cc(-c3cccc(C)c3)nn2-c2ccccc2)cc1	-11.2%	-13.3%
CC(C)C12CN3CC(C(C)C)(CN(C1)C3c1ccc3c(c1)OCO3)C2=O (stereo not given)	-6.7%	-16.3%
O=C(CCS(=O)(=O)c1cc2c3c(c1)CCN3C(=O)CC2)NCc1ccc(F)cc1	-6.0%	-15.5%
COC(=O)c1c(NC(=O)CCCOc2cccc(C)c2)sc2c1C(C(=O)OC)CC2 (stereo not given)	-7.0%[7.34 µM]	-4.7%[7.34 µM]
COc1ccc(C(=O)Nc2ccc3nc(N4CCC(C)CC4)cc(C)c3c2)cc1	-12.4%	-14.3%
N#Cc1nc(-c2ccccc2)oc1NCCCn1ccnc1	-9.8%	-13.9%
CCOc1ccc(S(=O)(=O)N(CC(=O)NCC(F)(F)F)Cc2ccco2)cc1	-6.8%	-13.6%
C/C(O)=C(\N=Nc1cc(C)ccc1O)C(N)=O	1.4%	-18.1%
O=C(Nc1ccccc1N1CCN(c2ccccc2)CC1)c1cccc(F)c1	-7.2%	-23.1%
COc1ccc(C)cc1NC(=O)CO/N=C(\N)CC(=O)NC1CCCCC1	-8.1%	i
COC(CNC(=O)c1ccc(-n2c(=S)[nH]c3ccccc3c2=O)cc1)OC	-4.7%	-15.2%
CCC(C(=O)OCC(=O)Nc1ccccc1-c1ccccc1)c1ccccc1 (stereo not given)	-9.7%	i
O=C(CSc1nc(C(F)(F)F)cc(=O)[nH]1)N1CCOCC1	-3.1%	i
C/C(CC(=O)Nc1ccc(Cl)cc1)=N\NC(=O)C(=O)NCCO	-16.0%	-3.8%
Cc1ccc(NC(=O)Cn2nnc(C(=O)NCCc3ccccc3)c2N)cc1Cl	2.0%&-3.3%	-7.1%
Cc1ccc2nc(-c3cc(NC(=O)COc4ccc(C)c(C)c4)ccc3Cl)oc2c1	-12.6%	-10.6%
Cc1cc(C)n2cc(CSC3=NCCS3)nc2n1	-15.3%	x
CCC(=O)N1CCN(C(=O)CC)C1c1ccccc1	-15.6%	-11.8%
Cc1ccc(NC(=O)C2(C)CCN2Cc2csc3ccccc23)cc1 (stereo not given)	-10.0%	i
O=C(NCc1ccccc1)C1Nc2ccc(OC(F)(F)F)cc2C2C=CCC12 (stereo not given)	u	u
Cc1cc(C)cc(NC(=S)/C(=C(\[O-])c2ccc(Cl)cc2Cl)[n+]2ccccc2)c1	-7.7%	-13.9%
COc1ccccc1NC(=O)N1CCc2c([nH]c3ccccc23)C1C(F)(F)F (stereo not given)	-19.2%	-18.6%
Cc1ccc(N2CC(C(=O)OCC(=O)c3ccc([N+](=O)[O-])cc3)CC2=O)cc1 (stereo not given)	-16.0%	-11.8%
O[C@@H]1C[C@H](c2ccc(Cl)cc2)N(Cc2cccs2)C[C@H]1n1cc(C2CC2)nn1	-12.2%	i
C=CCc1ccccc1OCC(O)CN(C(C)C)C(C)C (stereo not given)	-19.3%	-7.0%
Cc1ccc(C(=O)Nc2ccc(C(=O)OCc3cc(=O)n4c5c(sc4n3)CCCC5)cc2)cc1	-10.4%	i
COc1ccc(N(Cc2cccs2)C(=O)Nc2ccccc2)cc1	-4.2%	-3.8%
CCCS(=O)(=O)N1CCCC(C(=O)c2cccc(Cl)c2)C1 (stereo not given)	-22.1%	-10.5%
COc1ccc(Cl)cc1NC(=O)CN(C)C(=O)Cn1c(=O)oc2ccccc21	-15.9%	i
c1cncc(CSc2nnc3ccc(-c4cccs4)nn23)c1	0.2%	-4.3%
O=c1/c(=C/c2ccco2)sc2nc(-c3ccccc3Br)nn12	-24.3%	-7.4%
CCn1cc(C(=O)N2CCN(C(=O)c3ccco3)CC2)c2cc(OC)c(OC)cc2c1=O	-10.0%	-1.6%
CCCC(=O)N1CCCC1(C)C(=O)Nc1cccc(OC(C)C)c1 (stereo not given)	6.9%	14.6%
CCOC(=O)Cc1c(C)nc2c(-c3cccc(Br)c3)cnn2c1C	-6.0%	i
Cc1cccc(C)c1-n1c(C)nn(Cc2ccc([N+](=O)[O-])cc2)c1=O	-3.6%	-8.0%

Seven entries from above, with values under each structure:
Second line of a record: VACV Venus inh	VACV mCherry inh
- CCn1c(SCC(=O)Nc2cc(NC(C)=O)ccc2OC)nnc1-c1ccccn1
    0.8%	-11.7%
- COC(=O)c1ccccc1NC(=O)c1ccc2c(Cl)c3c(nc2c1)CCCC3
    -1.2%	-2.0%
- COc1ccc(OCCCC(=O)Nc2cc(Cl)ccc2-n2cncn2)cc1
    12.0%	-0.8%
- c1ccc(-n2ncc3c(NC4CCCC4)ncnc32)cc1
    -18.8%	i
- CCC(=O)c1ccc(OCC(=O)OCC(=O)N2c3ccccc3NC(=O)C2(C)C)cc1
    -8.9%	i
- NS(=O)(=O)c1ccc(CNC(=O)/C=C/c2cccc(Cl)c2)cc1
    -8.3%	i
- Cc1ccc(NC(=S)N2CCN(S(=O)(=O)c3ccc(F)cc3)CC2)cc1
    -15.3%	-17.0%

Screens deposited in PubChem by National Center for Advancing Translational Sciences (NCATS).
